Screens as filed in PubChem BioAssay.
Tg IFNy HTS: T. gondii growth inhibition with IFN-gamma, primary screen, cell-based; Toxoplasma gondii growth in IFN-gamma-treated host cells; active compounds read low; reference of the scale not given here; activity change, negative = inhibition, %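 (about 20 µM by stock and volumes)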; hit rate 3.8% among 69,000;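 active means below -70%; inconclusive means fit judged invalid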;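 further: host cells are HeLa cells infected with Toxoplasma gondii; parasite growth read as luciferase light; one replicate is shown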
Starred values were filed as active, the others as inactive; ? = inconclusive; & = joins results of further samples.

SMILES	Tg IFNy HTS
O=C(NCc1ccc(S(=O)(=O)Nc2ccc3c(c2)OCCO3)s1)c1ccccc1	-32.0
Cc1ccc(CNC(=O)CN2C(=O)CCc3cc(S(=O)(=O)N4CCOCC4)ccc32)cc1	-3.8
CCc1ccc(S(=O)(=O)N2CCC3(CCCN(c4ccccn4)C3)C2)cc1 (stereo not drawn)	-57.1
Nc1nnc(SCC(=O)c2ccc(F)cc2)s1	?
Cc1ccccc1C(=O)NCCc1sc(-c2cccc(F)c2)nc1C	15.3
O=C(O)CC1SC(c2ccc(Oc3ccc(C(F)(F)F)cn3)cc2)=NC1=O (stereo not drawn)	-16.1
CC(C)C(=O)N1CCN(CC2CC2)CC2(CC(=O)N(C)C2)C1 (stereo not drawn)	412.5
O=C(CSc1nc2c(c(=O)n1-c1ccccc1)SCC2)Nc1ccc(-c2ccccc2)cn1	-72.7*
N#C[C@@H]1[C@H](c2ccc(C3=CCCC3)cc2)[C@@H](CO)N1C(=O)c1ccccn1	35.5
CCCn1ccnc1-c1c(-c2ccccc2)ncn1Cc1ccc(CO)cc1	3.0
Cc1ccc(NS(=O)(=O)c2cc3c4c(c2)CCN4C(=O)CC3)cc1C	-94.9*
O=C(NC1CCC12CCN(C(=O)c1ccco1)CC2)c1cnccn1 (stereo not drawn)	2.8
O=C(c1ccccn1)N1CCO[C@@H]2[C@H]1CC[C@H]2OCC1CCOCC1	42.4
CCOCC1CCC2(CCN(C(=O)COc3ccccc3)CC2)N1C (stereo not drawn)	403.3
Cc1ccccc1C1(O)CCN(CC(O)c2ccc3c(c2)OCCO3)CC1 (stereo not drawn)	-20.0
OC[C@@H]1[C@H](c2ccccc2)C2(CN(Cc3nccs3)C2)N1CC1CCOCC1	-49.3
COCCN1CCC2(CC1)CC(CC(N)=O)c1ccc(F)cc12 (stereo not drawn)	7.6
Cc1ccc(NC(=O)Cn2ncc3c(N4CCN(c5ccccc5)CC4)ncnc32)cc1	-3.2
Cc1nc(C(C)C)sc1C(=O)NCCNS(C)(=O)=O	34.3
C[C@H]1CN([C@@H](C)CO)C(=O)c2ccccc2-c2ccccc2CO[C@H]1CN(C)C(=O)c1cc(Cl)cc(Cl)c1	-49.0
O=C(NCCc1csc(-c2cnccn2)n1)C1CC2(CCNCC2)CN1 (stereo not drawn)	-4.9
N#C[C@@H]1[C@@H](c2ccc(/C=C/c3ccccc3)cc2)[C@@H](CO)N1C(=O)C1CCCC1	-20.1
Cc1nc(-c2ccccc2)[nH]c(=O)c1CC(=O)NC(C)c1nc2ccccc2s1 (stereo not drawn)	11.0
COc1ccc(F)cc1-c1ccccc1CC1(C(=O)NCc2cccs2)CCOCC1	-2.6
Cc1cnc(N2C[C@H]3OCCN(S(=O)(=O)N(C)C)[C@H]3C2)nc1	8.5
O=C1c2ccccc2-c2oc(=O)c3ccccc3c21	5.2
Cc1ccccc1C(NC(=O)c1cnc(C(C)(C)C)nc1)c1ccncc1 (stereo not drawn)	-46.7
O=C1OCCN=C(c2ccccc2)c2ccccc21	-42.2
CCCCn1c(=N)n(CC(=O)c2ccc(Cl)c(Cl)c2)c2ccccc21	60.8
COc1cccc(-c2ccc(NC(=O)CCc3c(C)nc(N)nc3C)cc2)c1	83.8
COc1ccc2c3c(n(C)c2c1)[C@@H](CO)NCC31CCN(Cc2ccncc2)CC1	5.9
O=C1CSC(=S)N1Nc1ccccc1	-4.7
O=C(c1ccco1)N1CCc2ncnc(N3CCCC3)c2CC1	-9.0
COc1ccc(C(=O)N2CCC3(CC2)Nc2cc(F)ccc2-n2cccc23)cc1	69.5
CS(=O)(=O)N1C[C@@H]2N[C@H](C1)[C@@H]2c1ccc(-c2ccccc2)cc1	-67.0
O=C(Nc1cccc(F)c1)N1C[C@@H]2[C@H](c3ccccc31)[C@@H](CO)N2C(=O)Cc1ccccn1	-28.0
O=C(CCc1nc(-c2ccccc2Cl)no1)Nc1cccc(CN2CCCC2)c1	-47.1
Cc1ccc2c(c1)cc(S(=O)(=O)c1ccccc1)c(=O)n2CC(=O)NC1CCCC1	-19.8
O=S(=O)(c1ccccc1Cl)N1CCC2(CC1)Nc1ccccc1-n1cccc12	-59.2
COCCc1noc(CN2CCC(O)(c3ccc(C)cn3)CC2)n1	-7.2
COCc1nnc(NC(=O)CC2C(=O)NCCN2C2CCCC2)s1 (stereo not drawn)	5.5
COc1cccc(Cl)c1-c1csc(C(N)=O)c1	0.9
O=C(Nc1ccccc1)NC1CC(C(=O)O)Nc2cc(Cl)cc(Cl)c21 (stereo not drawn)	16.9
COc1cccc(-c2cc(C(=O)N(C)Cc3nnc(-c4ccccc4)o3)on2)c1	-1.7
COc1ccc(C#Cc2ccc3c(c2)[C@H]2[C@H](CCN2C(=O)Nc2ccc(C(F)(F)F)cc2)[C@H](CO)N3C)cc1	6.7
CCCn1cc(C(=O)Nc2cc(C(N)=O)ccc2N2CCCCC2C)c(C)n1 (stereo not drawn)	-18.5
C=CCN1C(=O)c2oc3ccccc3c(=O)c2C1c1ccc(O)c(OC)c1 (stereo not drawn)	17.7
O=C(c1ccc(-c2ccoc2)nc1)N1CCC(CCc2ccccc2)CC1	-10.6
O=c1cc2nn[nH]n2nc1-c1ccccc1	123.6
CC1(C)CC(CCN)(c2ccccc2)CCO1 (stereo not drawn)	-52.1

Next section; the last 4 above are carried over.
SMILES	Tg IFNy HTS
C=CCN1C(=O)c2oc3ccccc3c(=O)c2C1c1ccc(O)c(OC)c1 (stereo not drawn)	17.7
O=C(c1ccc(-c2ccoc2)nc1)N1CCC(CCc2ccccc2)CC1	-10.6
O=c1cc2nn[nH]n2nc1-c1ccccc1	123.6
CC1(C)CC(CCN)(c2ccccc2)CCO1 (stereo not drawn)	-52.1
CC(C)c1nccn1CCCNC(=O)c1ccc(N2CCNC(=O)CC2)nc1	1.6
O=C(NC[C@H]1[C@H](c2ccccc2)[C@H](CO)N1C(=O)Cc1ccncc1)C1CCC1	-21.4
CC(C)(C)C(=O)Nc1ccc(NC(=O)COc2cccnc2)cc1Cl	-36.0
CC(C)CN1CC2(CCN(C(=O)NCc3cccc(F)c3)CC2)C2(CCN(C)C2=O)C1 (stereo not drawn)	8.8
CCOc1ccccc1NC(=O)Cn1c(=O)ccc2cc(S(=O)(=O)N3CCC(C)CC3)ccc21	-60.0
O=C(NCc1ccco1)c1cc2ccccc2oc1=O	18.1
CCc1nc(N2[C@H](CO)[C@H](c3ccccc3-c3ccccc3C)[C@@H]2C#N)sc1C	25.9
COc1cc(C)ccc1-c1c(-c2ccccc2)ncn1CCNC(=O)C(C)C	-9.7
COc1ccc(-c2noc(-c3ccc(N(C)CCc4cn[nH]c4)nc3)n2)cc1	57.6
C=CC[C@@H]1CC=C[C@@H](C)N1C(=O)c1cnc2sc(C)c(C)n2c1=O	-5.8

Four of these compounds, reformatted:
SMILES: CC(C)CN1CC2(CCN(C(=O)NCc3cccc(F)c3)CC2)C2(CCN(C)C2=O)C1 (stereo not drawn)
- Tg IFNy HTS = 8.8

SMILES: CCOc1ccccc1NC(=O)Cn1c(=O)ccc2cc(S(=O)(=O)N3CCC(C)CC3)ccc21
- Tg IFNy HTS = -60.0

SMILES: O=C(NCc1ccco1)c1cc2ccccc2oc1=O
- Tg IFNy HTS = 18.1

SMILES: CCc1nc(N2[C@H](CO)[C@H](c3ccccc3-c3ccccc3C)[C@@H]2C#N)sc1C
- Tg IFNy HTS = 25.9

Other entries
SMILES	Tg IFNy HTS
COc1ccc2c3c([nH]c2c1)[C@@H](CO)N(C(=O)CC1CC1)CC31CN(Cc2cccnc2)C1	-33.8
O=C1c2ccc3c4c(ccc(c24)C(=O)N1C1CCCCC1)CC3	-7.0
COc1ccc(C(=O)Nc2sc3c(c2C(=O)NC2CCS(=O)(=O)C2)CCCC3)cc1 (stereo not drawn)	-27.5
CCN1c2cc(C)ccc2-n2cccc2C12CCN(S(=O)(=O)c1ccc(OC)c(Cl)c1)CC2	-99.5*
Cc1nc(CN(C)Cc2c(-c3ccccc3)nc3ccccn23)no1	13.0
CCCN(C)C[C@@H]1OCCCC[C@@H](C)Oc2ccc(NC(=O)CCCN(C)C)cc2C(=O)N([C@H](C)CO)C[C@H]1C	60.7
c1ccc(CNc2ncc(CN3CCC4(CCOCC4)CC3)cn2)cc1	83.5
CCc1nnc(NC(=O)CSc2nnc(CSc3nc(C)cc(C)n3)o2)s1	28.7
O=C(CCN1CCCCC1)N[C@H]1CC[C@H](CCn2cc(-c3cccc(F)c3)nn2)O[C@H]1CO	-10.8
Cc1nn(-c2ccc(F)cc2)c(C)c1C(=O)N1[C@@H]2CC[C@H]1CNC(=O)C2	0.0

5 entries drawn at random from the list so far, as already listed:
SMILES	Tg IFNy HTS
O=C(CCN1CCCCC1)N[C@H]1CC[C@H](CCn2cc(-c3cccc(F)c3)nn2)O[C@H]1CO	-10.8
CCN1c2cc(C)ccc2-n2cccc2C12CCN(S(=O)(=O)c1ccc(OC)c(Cl)c1)CC2	-99.5*
O=C1c2ccc3c4c(ccc(c24)C(=O)N1C1CCCCC1)CC3	-7.0
CCc1nnc(NC(=O)CSc2nnc(CSc3nc(C)cc(C)n3)o2)s1	28.7
Cc1nn(-c2ccc(F)cc2)c(C)c1C(=O)N1[C@@H]2CC[C@H]1CNC(=O)C2	0.0

Next part:
SMILES	Tg IFNy HTS
CCc1ccc(NC2=NCC(=O)N2Cc2ccccc2)cc1	9.5
CNC(=O)[C@@H]1CCO[C@@H]2CCN(Cc3cnn(C)c3)C[C@H]21	17.9
CC(=O)Oc1cc2c(c(C)c1OC(C)=O)CC=C1[C@@]2(C)CC[C@@]2(C)C3C[C@](C)(C(=O)O)CC[C@]3(C)CC[C@]12C (stereo partly drawn)	-80.5*
OC[C@@H]1[C@@H](c2ccc(-c3cccc(F)c3)cc2)[C@H]2CN(Cc3cncnc3)CCCCN12	9.1
C[C@H]1CN([C@@H](C)CO)S(=O)(=O)c2ccc(-c3cccc(C#N)c3)cc2O[C@@H]1CN(C)C(=O)c1ccccc1	-49.3
CCOc1cccc(CC(=O)N2CCc3c([nH]c4ccccc34)C2c2ccccc2)c1OCC (stereo not drawn)	465.4
O=C(c1cc2n(n1)CCN(C(=O)c1ccc(CO)o1)C2)N1CCCC1	0.5
O[C@H]1CN(c2nccc(CCC(F)(F)F)n2)C[C@@H]1N1CCOCC1	8.7
Cc1cccc(Nc2nc(C(=O)Nc3ccccc3Br)nc3ccccc23)c1	35.9
O=C(Cn1c(=O)ccc2cc(S(=O)(=O)N3CCCC3)ccc21)NCc1cccs1	49.4
C[C@H](CO)N1C[C@H](C)[C@@H](CN(C)S(=O)(=O)c2ccc(Cl)cc2)Oc2ccc(NC(=O)Cn3cnnn3)cc2CC1=O	15.5
Cc1ccc(C2CC(=O)C(C=NCCN3CCN(CC(=O)Nc4cc(C)cc(C)c4)CC3)=C(O)C2)cc1 (stereo not drawn)	9.7
Oc1ccc2ccccc2c1	-32.4&-29.3
O=C(C1CCOC1)N1CCN(CCn2cccn2)c2ncccc2C1 (stereo not drawn)	144.5
CC(Oc1ccccc1-c1ccnc2c1ccn2C)C(N)=O (stereo not drawn)	3.4
CCOC(=O)c1sc2nc(SCc3ccccc3)nc(-c3ccccc3)c2c1N	4.4
Cc1nc(-c2ccccc2F)sc1C(=O)Nc1cnn(Cc2cccc(F)c2)c1	-89.2*
O=C(C[C@@H]1CC[C@@H]2NC[C@H](O)COC[C@H]2O1)NCCc1ccncc1	6.7
COc1ccc(S(=O)(=O)N(C)C[C@@H]2OCCCC[C@@H](C)Oc3ccc(NC(=O)Cc4ccccc4)cc3C(=O)N([C@H](C)CO)C[C@@H]2C)cc1	3.3
Cc1cccc2c(=O)c(NC(=O)NCC3CCCO3)c[nH]c12 (stereo not drawn)	-4.3
C[C@@H]1CN([C@H](C)CO)S(=O)(=O)c2ccc(-c3ccncc3)cc2O[C@H]1CN(C)S(C)(=O)=O	-104.1*
Cc1ccc(C(=O)NC2CCN(C(=O)Nc3ccccc3)CC2)cc1	7.2
CN1C(=O)CO[C@@H]2CN(C(=O)CCc3ccccc3)C[C@@H]21	94.8
Cc1nc(-c2ccc(F)cc2)sc1CCNC(=O)c1ccc2c(c1)OCO2	-53.3
O=C(c1ccc2c(c1)OCO2)N1C[C@H]2[C@@H](c3ccccc31)[C@H](CO)N2C(=O)CC1CC1	1.3
O=C(O)C1CC2(CCNCC2)CN1Cc1ccc(-c2ccn[nH]2)o1 (stereo not drawn)	-5.0
CCOc1ccccc1NC(=O)c1nnn(Cc2nc(-c3ccccc3OCC)oc2C)c1C	76.1
CCN(CCCc1ccccc1)CCCc1ccccc1	-2.5&4.3&11.3
Cc1[nH][nH]c(=O)c1C(c1cc(C)n(-c2oc(C)c(C)c2C#N)c1C)c1c(C)[nH][nH]c1=O	-67.1
C[C@@H]1CN([C@@H](C)CO)C(=O)c2cccc(N(C)C)c2O[C@H]1CN(C)Cc1ccncc1	10.8
COc1ccc(NC(=O)CN2CCC3(CC2)N=C(c2ccc(C)cc2)C(=O)N3)c(OC)c1	48.1
CCc1ccccc1NC(=O)C(=O)NCCc1sc(-c2ccc(Cl)cc2)nc1C	153.9
Cn1c(CN2CCC(OCc3cccnc3)CC2)cc2ccccc21	-42.3
CSC(=S)Nc1ccc(F)cc1F	22.0
O=C(CCc1cn2ccccc2n1)NCc1cn[nH]c1-c1ccc(F)cc1	0.4
CCCn1ccnc1CN(C)Cc1nc(-c2cccnc2)no1	-31.1
CN(C)C(=O)N1CC2(COC(C(=O)NCCc3cccnc3)C2)c2ccccc21 (stereo not drawn)	-1.9
COc1cc(NC(=O)c2nc(Nc3ccc(Cl)cc3)c3ccccc3n2)cc(OC)c1OC	-52.1
O=C(O)c1ccccc1Nc1ccccc1	-13.3
CC(=O)c1ccc(C#N)c(SCC(=O)Nc2ccc(C(F)(F)F)cc2)n1	22.7
Cc1ccc(S(=O)(=O)Nc2ccc(-c3nc4ccccc4[nH]3)cc2)cc1	-81.0*
Cc1csc(CN2CC[C@]3(CCC[C@@H](CNC(=O)N(C)C)O3)C2)n1	-41.8
Cc1ccc(Cl)cc1NS(=O)(=O)c1cc2c3c(c1)CCN3C(=O)CC2	-53.0
c1nc2c(c(N3CCC(N4CCCCC4)CC3)n1)CCC2	72.4
CS(=O)(=O)N1C[C@H](NC(=O)c2cnccn2)[C@H]2OCCC[C@H]21	4.7

Only part of the results is shown; rates above refer to the full screens.
